# Cruzain inh noDet – inhibitors of Trypanosoma cruzi cruzain without detergent | P25779 | purified cruzain, Z-FR-AMC fluorescence, no detergent | Potency, µM, inactives show max response, negative = inhibition, usual class: inhibitors | hit rate 2.3% among 200,000;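 also: plate controls were enzyme without inhibitor for no effect and buffer without enzyme for full effect; nearly all actives have a fitted effect of over 40% in size; top concentration of the series not given in the record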
# Target sequence (P25779 123-467 limits assumed): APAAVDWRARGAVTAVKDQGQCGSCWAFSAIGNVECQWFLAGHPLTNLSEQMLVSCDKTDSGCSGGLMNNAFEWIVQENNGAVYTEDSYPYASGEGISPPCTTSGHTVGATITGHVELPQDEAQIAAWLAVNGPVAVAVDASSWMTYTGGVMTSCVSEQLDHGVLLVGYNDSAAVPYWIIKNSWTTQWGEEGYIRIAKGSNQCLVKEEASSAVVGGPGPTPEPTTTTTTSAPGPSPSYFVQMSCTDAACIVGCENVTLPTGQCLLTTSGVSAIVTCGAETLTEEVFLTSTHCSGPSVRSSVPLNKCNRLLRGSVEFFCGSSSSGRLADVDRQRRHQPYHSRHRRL
#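 Detergent-free condition (0.00005% Triton X-100) in acetate buffer pH 5.5 with DTT. 1.5 nM enzyme and compound were pre-mixed 15 min, then 2 uM Z-FR-AMC substrate added; reaction progress from fluorescence change between first and third reads (60 s).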
# RE007 growth inh – less growth of the S. pombe RE007 Vpr strain; S. pombe RE007 Vpr strain, BacTiter-Glo ATP luminescence, 24 h; control for the full effect not named in the record; Potency, µM (series often up to 92.2 µM), inactives show at the highest dose activity change, negative = less growth; hit rate 0.21% among 360,000; AID 651644; active = well fitted falling curve with a large enough effect; inconclusive = small, poorly fitted or top-dose-only effect; inactive = no such curve, though single readings can be large or run the other way;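 also: % is scaled to controls: 0 for no effect and ±100 for the full control effect; nearly all actives have a fitted effect of over 50% in size; the assay follows cell death caused by Vpr and the record does not say whether a fall means rescue or toxicity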
#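 Fission yeast RE007 carrying one integrated HIV-1 vpr copy, seeded at OD 0.01 in PMG+AL medium with 23 nL pinned compound. Grown 24 h at 30 degrees; viability read by BacTiter-Glo luminescence after 5 min.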
# Cruzain Triton – cruzain (T. cruzi) inhibition with detergent; P25779; purified cruzain, Z-FR-AMC fluorescence, 0.01% Triton; Potency, µM, inactives show max response, negative = inhibition, hits mostly inhibitors; hit rate 0.43% among 200,000;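 also: plate controls were neutral wells for no effect and buffer without enzyme for full effect; nearly all actives have a fitted effect of over 40% in size; top concentration of the series not given in the record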
#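 Steps: dispense cruzain (1.5 nM final) in acetate buffer pH 5.5 with DTT and 0.01% Triton X-100; pin-transfer compounds; incubate 15 min RT; add Z-FR-AMC (2 uM final); read fluorescence every 30 s, using the 60 s intensity change.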
# Marburg entry inh – inhibitors of Marburg virus binding or cell entry; hit rate 1.8% among 300,000; AID 540276; Potency, µM (series often up to 37.8 µM), without a hit: top-dose activity change, negative = inhibition, most hits filed as inhibitors; Marburg virus pseudotyped entry inhibition, cell reporter; control for the full effect not named in the record; about a third of the inactives were read at about 46 µM; active = well fitted inhibition curve with a large enough effect; inconclusive = small, poorly fitted or top-dose-only effect, or effect the other way; inactive = flat fitted curve, though single readings scatter; tested in HEK293 cells; about a fifth of its hits are not listed in these tables; also: % is scaled to controls: 0 for no effect and ±100 for the full control effect; luciferase read-out
# Lassa entry inh – inhibitors of Lassa virus binding or cell entry; Lassa virus pseudotype entry inhibition, cell reporter; control for the full effect not named in the record; Potency, µM (series often up to 37.9 µM), for the others: top-dose activity change, negative = inhibition, actives largely listed as inhibitors; hit rate 1.2% among 300,000; AID 540256; active means well fitted inhibition curve with a large enough effect; inconclusive means small, poorly fitted or top-dose-only effect, or effect the other way; inactive means flat fitted curve, though single readings scatter; tested in HEK293 cells; also: % is scaled to controls: 0 for no effect and ±100 for the full control effect; nearly all actives have a fitted effect of over 50% in size; luciferase read-out
# SARS PLpro yeast – blocks SARS-CoV papain-like protease in a yeast assay | S. cerevisiae expressing SARS-CoV PLpro, growth rescue; control for the full effect not named in the record | Potency, µM (doses to about 32.9 µM), inactives show at the top dose activity, positive = growth rescue | hit rate 0.19% among 330,000 | AID 485353; active means well fitted rising curve with a large enough effect; inconclusive means small, poorly fitted or top-dose-only effect; inactive means no such curve, though single readings can be large or run the other way; also: 0% is about no effect; nearly all actives have a fitted effect of over 55% in size; growth read by luminescence after 48 h
# 2A StopGo – lowers the luciferase signal of an FMDV 2A StopGo reporter; human cells with a luciferase reporter of 2A StopGo recoding; control for the full effect not named in the record; Potency, µM (highest dose often 57.9 µM), for the others: at the top dose signal change, negative = less light; hit rate 1.2% among 410,000; AID 1159524; active = well fitted falling curve with a large enough effect; inconclusive = small, poorly fitted or top-dose-only effect; inactive = no such curve, though single readings can be large or run the other way; tested in HEK293T cells; also: % is scaled to controls: 0 for no effect and ±100 for the full control effect; nearly all actives have a fitted effect of over 45% in size; luciferase light after 4 h
# NS1 function inh – influenza NS1 inhibition; hit rate 0.4% among 270,000; Potency, µM (titrated, usually from 46.1 µM), for inactives: at the highest dose activity, positive = more growth; AID 2326; S. cerevisiae slowed by influenza A NS1, growth recovery by OD600; active means well fitted rising curve with a large enough effect; inconclusive means small, poorly fitted or top-dose-only effect; inactive means no such curve, though single readings can be large or run the other way; also: nearly all actives have a fitted effect of over 50% in size
#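 In this qHTS, NS1 from influenza A is expressed in budding yeast, where it slows growth. Cells are switched from glucose to 2% galactose medium (pH 6.0, -URA), treated with compound, and growth recovery is read at OD600.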
# Starred values were filed as active, the others as inactive; ? = inconclusive; . = not tested or not shown; & = joins results of further samples; [ ] = remark or other dose. Unless noted, calls follow the shape of the dose curve; as a rule, active = well fitted curve in the direction sought with a large enough effect; inconclusive = small, poorly fitted or top-dose-only effect, or another doubt; inactive = no such curve, though single readings can be large; an effect the other way counts as inactive or inconclusive. Potency is read from the fitted curve at half-maximal effect.
SMILES,Cruzain inh noDet,RE007 growth inh,Cruzain Triton,Marburg entry inh,Lassa entry inh,SARS PLpro yeast,2A StopGo,NS1 function inh
Cc1c(N=Cc2ccncc2)c(=O)n(-c2ccccc2)n1C,-6%,-8%,5.4%,4%,?,1%,0%,-6%
CCCC(=O)NC(c1ccc(OCC)cc1)c1ccc(OC)c(OC)c1 (stereo not given),.,-5%,.,-24%,-2%,2%,-1%,-3%
Cc1nn(Cc2ccccc2)c(Cl)c1/C=N/NC(=O)CNc1cccc(C(F)(F)F)c1,13%,-1%,-7.7%,0%,?,5%,-4%,18%
COCCN(C(=O)CCC(=O)Nc1ccccn1)C(C(=O)NC1CCCC1)c1ccc(OC)cc1 (stereo not given),-1%,7%,-0.1%,-10%&-10%,2%,-20%,-16%,-9%
CCN(CC)S(=O)(=O)c1cccc(C(=O)N2CCCc3ccccc32)c1,.,3%,.,.,.,-6%,4%,-4%
COc1ccccc1-c1cn[nH]c1-c1ccc(OCc2ccccc2F)cc1O,.,3%,.,-18%,?,-5%,-8%,-45%
C=CCN1C(=O)/C(=C\c2ccc(Cl)cc2)N=C1SCC(=O)NCCC,-2%,0%,1.1%,5%,0%,3%,-18%,7%
Cc1ccnc(NC(=O)c2ccc([N+](=O)[O-])s2)c1,.,?,.,.,.,-2%,58%[activator],-2%
CCOC(=O)C1CCN(c2nc3ccccc3nc2C(C#N)C(=O)OC(C)COC)CC1 (stereo not given),?,5%,-7.0%,?,?,-1%,-30%,-2%
O=C(c1nc2ccc(Cl)cn2c1CN1CCCC1)N1CCc2ccccc2C1,.,-4%,.,.,.,5%,-16%,5%
COc1cc(CN2CCNC(=O)C2CC(=O)N(C)Cc2cccnc2)cc(OC)c1 (stereo not given),.,-6%,.,.,.,1%,-17%,1%
O=[N+]([O-])c1ccc(C2[C@H]3C(c4ccccc4)=NC4(CCCCC4)N23)cc1 (stereo not given in full),-6%,0%,-3.7%,.,.,-17%,?,11%
COc1ccc(-c2c(C)nn3c(-c4ccccc4)cc(-c4ccccc4)nc23)cc1,-9%,.,-1.8%,1%[46.1 µM],17%[46.1 µM],.,-18%,.
CN(C)c1ccc(CNn2cnnc2)cc1,2%,8%,2.1%,-4%,11%,0%,.,-1%
COc1ccc(/C=N/NC(=O)c2ccc(CSc3nc(C)cc(C)n3)cc2)c(OC)c1OC,?,0%,-6.9%,5%,14%,9%,-17%,16%
CCN(CC)CCNC(=O)c1ccc(CS(=O)(=O)c2ccc(Br)cc2)o1,-8%,-9%,1.8%,.,.,-4%,0%,3%
Cc1nnc(SCC(N)=O)n1CCc1ccccc1,3%,-3%,-2.3%,-1%,-1%,15%,-18%,5%
CC(C)CNC(=O)c1ccccc1NC(=O)CN(c1ccccc1)S(=O)(=O)N(C)C,.,6%,.,-6%[46.1 µM],-28%,0%,-18%,-5%
COc1ccc(-c2cnn(C3CCS(=O)(=O)C3)c2N)cc1 (stereo not given),-5%,7%,1.7%,-1%,14%,12%,-22%,8%
Cc1ccc(S(=O)(=O)N2CCOCC2)cc1NC(=O)Cn1ccsc1=N,5%,0%,1.6%,-13%,6%,4%,-13%,8%
Cc1ccc2c(c1)[nH]c1c(=O)n(CCCN3CCOCC3)cnc12,-26%,-7%,-6.6%,?,1%,3%,-2%,0%
COc1ccc(Cn2c(CNC(=O)Cc3ccc(OC)c(OC)c3)nc3cccnc32)cc1,10%,.,-1.4%,.,-29%[46.1 µM],.,1%,.
CC(C)C[C@H](NC(=O)c1[nH]cnc1C(=O)N[C@@H](Cc1ccccc1)C(=O)OCc1ccccc1)C(=O)OC(C)(C)C,.,-4%,.,.,.,4%,0%,?
CCN1CCN(CC(=O)N2N=CCC2c2ccccc2)CC1 (stereo not given),.,7%,.,21%[46.1 µM],20%[46.1 µM],0%,-14%,2%
CCCC(c1nnnn1Cc1ccco1)N1CCN(C2CCCC2)CC1 (stereo not given),-2%,0%,5.2%,9%,7%,6%,67%[activator],?
COc1ccc(CNC(=O)Cn2cc(C(F)(F)F)ccc2=O)cc1OC,.,-1%,.,1%[46.1 µM],-17%[46.1 µM],1%,1%,8%
CCCC(=O)Nc1c(-c2ccccc2)c(=O)c(C)nn1-c1ccccc1,.,8%,.,5%[46.1 µM],12%[46.1 µM],2%,14%,4%
O=C(Nc1nccs1)C1CCCN1/C=C/C(=O)C(F)(F)F (stereo not given),.,-4%,.,.,.,0%,6%,8%
COc1ccc(CCNC(=O)C2CCCN(S(=O)(=O)c3cccc4nonc34)C2)cc1OC (stereo not given),-10%,5%,1.3%,0%&0%[46.1 µM],4%,.,0%,-5%
Cc1cc(=O)[nH]c(-c2ccccc2O)n1,-11%,1%,-5.4%,8%,-17%[14.3 µM],0%,22%,-24%
Cc1csc(NC(=O)CSc2nnc(-c3ccoc3C)n2Cc2ccco2)n1,-9%,-6%,-4.3%,?,-6%,1%,?,-11%
COCC1CCN(C(=O)c2ccc3oc(Cc4ccc(Cl)cc4)nc3c2)C1 (stereo not given),.,16%,.,-8%,7%,.,6%,.
COc1cccc(CNC(=O)c2ccc3nc(CCc4ccccc4)oc3c2)c1OC,-8%,.,-2.5%,.,-12%[46.1 µM],.,1%,.
COc1ccc(C(=O)Nc2ccc(Oc3ncnc4sc(-c5ccccc5)cc34)cc2)cc1OC,14%,13%,2.2%,-1%,10%,6%,-21%,-1%
Cc1ccc(C(=O)N(CC(=O)NC2CCCC2)c2ccc(F)cc2)s1,.,10%,.,?,16%,1%,-19%,-10%
O=C(NC1CN2CCC1CC2)c1ccc(-c2ccc([N+](=O)[O-])cc2)o1 (stereo not given),?,17%,?,?,3%,-1%,0%,13%
CC(C)[C@H](NC(=O)OC(C)(C)C)C(=O)N/N=C/c1cccc2nccnc12,3%,-9%,1.1%,0%,-11%,8%,24%,3%
CCC(C(=O)OC)n1cnc2c(nnn2-c2ccc(F)cc2)c1=O (stereo not given),.,-9%,.,.,.,-4%,-9%,-14%
CCSc1nnc(SCC(=O)N2CCN(C(=O)c3ccco3)CC2)s1,.,4%,.,?,-10%,?,-4%,14%
Cc1ccc2[nH]c(=O)c(Cc3ccccc3)c(O)c2c1,.,11%,.,2%[46.1 µM],-16%,1%,-16%,-1%
COC(=O)c1cc(NC(=O)Cc2ccc(OC)cc2)cc(C(=O)OC)c1,-6%,2%,-4.7%,-1%,-17%,0%,-1%,6%
Cc1ccc(Nc2nc(NCCCN3CCOCC3)nc(N)c2[N+](=O)[O-])cc1,6%,16%,-4.4%,7%,2%,?,-4%,-6%
CC[n+]1ccc(C)c2cc(S(=O)C(F)(F)F)ccc21 (stereo not given),-1%,6%,0.3%,-13%,0%,-3%,-6%,1%
Cc1ccc(NC(=O)CN2C(=O)c3ccccc3Sc3ccc(C(=O)N4CCOCC4)cc32)cc1F,6%,.,-0.5%,.,12%[46.1 µM],.,-10%,.
O=C(CN(Cc1cccs1)C(=O)CNS(=O)(=O)c1ccccc1)NC1CCCC1,.,3%,.,8%[46.1 µM],-1%,0%,5%,-1%
O=C(CSc1nnc(NC(=O)c2c(F)cccc2F)s1)NCC1CCCO1 (stereo not given),.,3%,.,-4%,12%,2%,10%,.
CCOC(=O)c1c(NC(=O)c2cc(=O)c3cc(C)cc(C)c3o2)sc(C)c1C,-9%,.,-1.1%,-5%[46.1 µM],6%[46.1 µM],.,-2%,.
CCOc1ccc(CNC(=O)CCCc2cn(C)c3ccccc23)cc1OC,15%&17%,-10%,0.6%&-3.0%,0%,?,6%,-12%&-23%,-25%
NC1CCc2cc(O)c(O)cc2C1 (stereo not given),1%,3%,2.3%,?,6%,3%,-29%,1%
CCC(C)NC(=O)c1ccc(CS(=O)(=O)Cc2ccc(Cl)cc2)o1 (stereo not given),2%,1%,-6.0%,5%,9%,-16%,?,-3%
COc1ccc(S(=O)(=O)Nc2ccc3c(c2)n(C)c(=O)n3C)cc1C,.,134%,.,?,-18%,0%,18%,7%
CC1CCN(C(=O)CSc2c3c(nc4ccc(Cl)cc24)CCCC3)CC1,-18%,.,-18%,22%[46.1 µM],1%[46.1 µM],.,?,.
Nc1nc(N2CCOCC2)nc(N(c2ccccc2)c2ccccc2)n1,5%,11%,1.6%,.,.,3%,0%,-5%
CCSc1ncc(Cl)c(C(=O)Nc2nc3ccc(S(C)(=O)=O)cc3s2)n1,1%,.,1.5%,?,-11%[46.1 µM],.,-22%,.
O=C(CCl)N(C1CCCC1)C1CCS(=O)(=O)C1 (stereo not given),.,-18%,.,?,?,1%,-17%,-1%
CCN(CC)c1ccc(/C=C2\SC(N)=NC2=O)cc1,.,5%,.,3%[46.1 µM],22%[46.1 µM],3%,35%[activator],10%
CCc1ccccc1NC(=O)c1ccc2nc(C(C)C)oc2c1,2%,.,-1.4%,.,-6%[46.1 µM],.,?,.
COc1ccc(/C=C2\N=C(c3ccccc3)NNC2=O)cc1,.,-1%,.,?,9%[46.1 µM],-1%,-11%,-1%
O=C(OCc1ccccc1)N1CCOCCOCCN(C(=O)OCc2ccccc2)CCOCCOCC1,?,-8%,4.7%,?,?,25%,22µM*,-24%
CC1(C)CC(=O)C(C(=O)CCCCC(=O)C2C(=O)CC(C)(C)CC2=O)C(=O)C1,-17%,5%,-2.5%,10%&10%,0%,1%,-3%,-8%
CC1CCN(S(=O)(=O)c2ccc(NC(=O)CNC3CCCCC3)cc2)CC1,.,0%,.,?,?,-2%,1%,1%
COc1ccc(C)cc1NC(=O)C(=O)NCCc1sc(-c2cccc(C)c2)nc1C,-13%,.,-1.4%,.,?,.,-21%,.

# Compound activity: PubChem BioAssay, National Center for Advancing Translational Sciences (NCATS)

# The order is random. Share with any hit: about 4.7%.
